# Compound activity from PubChem.
# ID4 binder: binds human ID4 protein on microarray. P47928. small molecule microarray, Flag-ID4 binding, fluorescence F/B. calls only. hit rate 1.2% among 31,000. AID 624137;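 active means spot signal over background at p below 0.07 in all four prints; compounds were printed on slides so no solution concentration is given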;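 further: a binder raises fluorescence above local background on the spot; about 2 pmol printed per array spot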
# Target sequence (P47928 whole entry, looked up): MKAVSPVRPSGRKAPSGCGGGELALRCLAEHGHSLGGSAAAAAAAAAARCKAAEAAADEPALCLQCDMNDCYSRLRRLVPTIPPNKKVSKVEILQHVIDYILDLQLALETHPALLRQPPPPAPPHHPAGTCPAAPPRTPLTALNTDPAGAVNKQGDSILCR
# Calls only; i = inactive; + = active, no number. This is a subset, so the mix of outcomes need not match the whole.
SMILES,ID4 binder
CNC[C@@H]1Oc2ncc(C#Cc3ccccc3F)cc2C(=O)N([C@@H](C)CO)C[C@@H]1C,i
Cn1c(SCC(=O)N2c3ccccc3Sc3ccccc32)nnc1-c1ccccc1Cl,i
COc1ccccc1-c1cnc2c(c1)C(=O)N([C@@H](C)CO)C[C@H](C)[C@@H](CN(C)CC1CCCC1)O2,i
C[C@@H]1CN([C@H](C)CO)S(=O)(=O)c2ccc(C#CCN(C)C)cc2O[C@H]1CN(C)S(=O)(=O)c1cccc(F)c1,i
CCNC(=O)C[C@H]1CC[C@H](NC(=O)C2CC2)[C@H](CO)O1,i
Cc1cc(Cl)ccc1NC(=O)CN(c1cccc(Cl)c1)S(C)(=O)=O,i
C[C@H](CO)N1C[C@H](C)[C@@H](CN(C)C(=O)c2ccccc2F)Oc2ncc(-c3ccccc3)cc2C1=O,i
COc1ccc([Si](C)(C)[C@H]2[C@H](CCn3cc(CCO)nn3)O[C@@]3(C(=O)N(Cc4ccc(N5C(=O)c6cccc7cccc5c67)cc4)c4ccccc43)[C@@H]2C)cc1,i
COc1ccccc1-c1ccc2c(c1)O[C@H](CN(C)C)[C@@H](C)CN([C@@H](C)CO)S2(=O)=O,i
C[C@H]1CN([C@@H](C)CO)S(=O)(=O)c2ccc(-c3ccccc3F)cc2O[C@@H]1CN(C)Cc1ccncc1,i
COc1ccc(C(C)=O)cc1CSc1nc2cc(C)c(C)cc2[nH]1,i
CCNC(=O)C[C@@H]1C=C[C@@H](NC(=O)C2CC2)[C@H](CO)O1,i
O=C(C[C@H]1CC[C@H](NC(=O)CC2CC2)[C@H](CO)O1)NCc1ccc(-c2ccccc2)cc1,i
O=C(c1cccs1)n1nc(-c2ccccc2)nc1NCc1ccco1,i
Cc1ccc(N(CC(=O)Nc2cc(Cl)ccc2C)S(C)(=O)=O)c(C)c1,i
COc1ccc(-c2cc(C(=O)OCc3ccco3)c3ccccc3n2)cc1OC,i
COc1ccc2nc(Nc3nc(CSc4ccc(Cl)cc4)cc(=O)[nH]3)nc(C)c2c1,i
CCOc1ccc(Oc2nc(NCC(C)C)nc(N(C)C)n2)nn1,i
Cc1ccc(-c2ccc3c(c2)O[C@@H](CN(C)C)[C@@H](C)CN([C@@H](C)CO)S3(=O)=O)cc1,i
C[C@@H]1CN([C@@H](C)CO)C(=O)c2cc(N(C)C)ccc2O[C@H]1CN(C)Cc1ccc(C(F)(F)F)cc1,i
C[C@H](CO)N1C[C@H](C)[C@@H](CN(C)C(=O)Nc2ccnc(N3CCOCC3)c2)OCc2ccccc2-c2ccccc2C1=O,i
COc1ccc(S(=O)(=O)NCCc2ccc(OC)c(OC)c2)cc1Cl,i
CCCNC(=O)N(C)C[C@@H]1Oc2ncc(C#Cc3ccncc3)cc2C(=O)N([C@@H](C)CO)C[C@@H]1C,i
OC(CNCc1ccccc1)Cn1c2ccccc2c2ccccc21 (centres undefined),i
COc1cccc(-c2cnc3c(c2)C(=O)N([C@@H](C)CO)C[C@@H](C)[C@H](CN(C)CC2CCOCC2)O3)c1,i
O=C(CSc1nnc(-c2cccc(Cl)c2)n1-c1ccccc1)Nc1ccccc1-c1ccccc1,i
O=C(CCc1nc(-c2ccccc2F)no1)Nc1ccccc1[N+](=O)[O-],i
CC(C)C#Cc1cnc2c(c1)C(=O)N([C@@H](C)CO)C[C@@H](C)[C@H](CN(C)C(=O)c1ccccc1)O2,i
C[C@H](CO)N1C[C@H](C)[C@@H](CN(C)C(=O)c2ccccn2)Oc2ncc(-c3ccccc3)cc2C1=O,i
O=C(C[C@H]1CC[C@H](NC(=O)c2cccc(F)c2)[C@@H](CO)O1)NCc1ccccc1,i
Cc1ccccc1-c1cnc2c(c1)C(=O)N([C@@H](C)CO)C[C@H](C)[C@H](CN(C)CC1CCOCC1)O2,i
O=c1[nH]c(=O)n(Cc2ccco2)c2c1C(C(F)(F)F)(C(F)(F)F)N=C(CCc1ccccc1)N2,i
C[C@H]1CN([C@@H](C)CO)C(=O)c2cc(NC(=O)Cc3cn(C)c4ccccc34)ccc2O[C@H]1CN(C)C,i
Cc1cc(C)c2c(=O)cc(C(F)(F)F)oc2c1,i
O=C1O[C@H](c2ccccc2)[C@H](c2ccccc2)N2[C@H]1[C@@H](C(=O)Nc1nc3ccccc3s1)[C@]1(C(=O)Nc3ccc(C#CCCO)cc31)[C@H]2c1ccc(OCCO)cc1,i
COCC#Cc1ccc2c(c1)O[C@@H](CN(C)Cc1ccccc1)[C@@H](C)CN([C@H](C)CO)S2(=O)=O,i
C[C@H]1CN([C@@H](C)CO)C(=O)Cc2cc(NC(=O)C3CCCCC3)ccc2O[C@@H]1CN(C)C,i
CNC[C@@H]1Oc2ncc(-c3ccc(OC)cc3)cc2C(=O)N([C@@H](C)CO)C[C@H]1C,i
O=C(O)CCCC(=O)Nc1ccc(F)cc1,i
Cc1ccc(NC(=O)CSc2nnc(-c3ccc([N+](=O)[O-])cc3)n2-c2ccccc2)cc1C,i
COc1ccc(S(=O)(=O)Nc2cccc(N(C)S(C)(=O)=O)c2)cc1OC,i
COc1cccc(NC(=O)CC2OCCN(Cc3ccccc3)C2=O)c1 (centres undefined),i
COc1ccc(CCN(C)CCCC(C#N)(c2cc(OC)c(OC)c(OC)c2)C(C)C)cc1OC (centres undefined),i
CC(Sc1ncn[nH]1)C(=O)Nc1ccc(Cl)cc1 (centres undefined),i
C[C@H](NC(=O)C[C@@H]1C[C@H]2c3cc(N(C)C)ccc3O[C@H]2[C@H](CO)O1)c1ccccc1,i
C[C@H](CO)N1C[C@H](C)[C@@H](CN(C)CC2CCOCC2)Oc2cc(C#Cc3cccnc3)ccc2S1(=O)=O,i
Cc1cc(=O)[nH]c(SCCCOc2ccc(F)cc2)n1,i
C[C@H]1CN([C@@H](C)CO)S(=O)(=O)c2ccc(C#Cc3cccnc3)cc2O[C@H]1CN(C)CC1CCOCC1,i
COc1ccc(NC(=O)Nc2ccc3c(c2)[C@@H]2C[C@H](CC(=O)N4CCN(C)CC4)O[C@H](CO)[C@@H]2O3)cc1,i
CSc1ccccc1NC(=O)CN(c1ccc(I)cc1)S(C)(=O)=O,i
COC(=O)c1ccc(NC(=O)CCC(=O)c2ccc(C)cc2C)cc1,i
COc1ccc(-c2csc(NC(=O)Cc3cccc4ccccc34)c2C(=O)O)cc1,i
Cc1cc2ccccc2n2c(SCC(N)=O)nnc12,i
COc1cccc2c1oc(=O)c1c(NC(C)=O)nc(-c3cccs3)nc12,i
CCc1ccccc1NC(=O)CSc1nnc(-c2cccc(OC)c2)n1C,i
C[C@H]1CN([C@@H](C)CO)C(=O)c2cc(C#CC3CCCCC3)cnc2O[C@@H]1CN(C)S(=O)(=O)c1cccc(F)c1,i
O=[N+]([O-])c1ccccc1S(=O)(=O)N1CCN(Cc2cccc(OCCO)c2)CC1,i
CCn1c(SCc2nc3ccccc3[nH]2)nc2sc(C)c(C)c2c1=O,i
CO[C@H](CN(C)S(=O)(=O)c1cccc(Cl)c1)[C@H](C)CN([C@H](C)CO)S(=O)(=O)c1ccc(Cl)cc1,i
C[C@@H]1CN([C@@H](C)CO)C(=O)c2cc(NC(=O)Cc3ccccc3)ccc2O[C@@H]1CN(C)C,i

# (more compounds)
SMILES,ID4 binder
O=C1C(=O)N(CCN2CCOCC2)C(c2ccc(Cl)cc2)C1C(=O)c1cccs1 (centres undefined),i
COc1ccc(CNC(=O)C[C@H]2C=C[C@@H](NC(=O)c3ccc4c(c3)OCO4)[C@H](CO)O2)cc1,i
COc1ccccc1N1CCN(CCCCN2C(=O)CCC2=O)CC1,i
c1ccc2c(c1)nc1n2CN(C2CCCCC2)CN1,i
CCCC#Cc1cnc2c(c1)C(=O)N([C@H](C)CO)C[C@H](C)[C@H](CN(C)Cc1ccncc1)O2,i
O=C1c2ccccc2C(=O)N1CCCc1nc(-c2ccncc2)no1,i
COC(=O)c1sccc1NC(=O)COc1cccc(C)c1,i
CCn1c(SCC(=O)c2ccc(F)cc2)nnc1-c1cccnc1,i
CCOC(=O)c1c(NC(=O)c2nc3nc(C)cc(C(F)F)n3n2)sc2c1CCCC2,i
C[C@@H]1CN([C@@H](C)CO)C(=O)c2cc(C#CC3CCCC3)cnc2O[C@H]1CN(C)Cc1ccncc1,i
COc1ccccc1NC(=O)CSc1nc2cc3ccccc3cc2[nH]1,i
C[C@@H]1CN([C@@H](C)CO)C(=O)c2cc(C#Cc3ccccn3)cnc2O[C@H]1CN(C)CC1CCOCC1,i
COc1ccc2[nH]cc(CCNC(=O)Nc3ccc(Cl)c(Cl)c3)c2c1,i
C/C=C/c1cnc2c(c1)C(=O)N([C@H](C)CO)C[C@H](C)[C@H](CN(C)Cc1ccccc1)O2,i
CC(=O)NCCc1nc2cc(NC(=O)c3ccccc3)ccc2n1C,i

# 14 successive compounds from above, for reference:
SMILES,ID4 binder
COc1ccc(CNC(=O)C[C@H]2C=C[C@@H](NC(=O)c3ccc4c(c3)OCO4)[C@H](CO)O2)cc1,i
COc1ccccc1N1CCN(CCCCN2C(=O)CCC2=O)CC1,i
c1ccc2c(c1)nc1n2CN(C2CCCCC2)CN1,i
CCCC#Cc1cnc2c(c1)C(=O)N([C@H](C)CO)C[C@H](C)[C@H](CN(C)Cc1ccncc1)O2,i
O=C1c2ccccc2C(=O)N1CCCc1nc(-c2ccncc2)no1,i
COC(=O)c1sccc1NC(=O)COc1cccc(C)c1,i
CCn1c(SCC(=O)c2ccc(F)cc2)nnc1-c1cccnc1,i
CCOC(=O)c1c(NC(=O)c2nc3nc(C)cc(C(F)F)n3n2)sc2c1CCCC2,i
C[C@@H]1CN([C@@H](C)CO)C(=O)c2cc(C#CC3CCCC3)cnc2O[C@H]1CN(C)Cc1ccncc1,i
COc1ccccc1NC(=O)CSc1nc2cc3ccccc3cc2[nH]1,i
C[C@@H]1CN([C@@H](C)CO)C(=O)c2cc(C#Cc3ccccn3)cnc2O[C@H]1CN(C)CC1CCOCC1,i
COc1ccc2[nH]cc(CCNC(=O)Nc3ccc(Cl)c(Cl)c3)c2c1,i
C/C=C/c1cnc2c(c1)C(=O)N([C@H](C)CO)C[C@H](C)[C@H](CN(C)Cc1ccccc1)O2,i
CC(=O)NCCc1nc2cc(NC(=O)c3ccccc3)ccc2n1C,i

# Next part
SMILES,ID4 binder
C[C@@H]1CN([C@@H](C)CO)C(=O)c2cccc(N(C)C)c2O[C@H]1CN(C)C(=O)Nc1ccccc1,i
CSc1ccccc1NC(=O)C(C)N(c1ccc(C)cc1)S(C)(=O)=O (centres undefined),i
Cc1ccc(S(=O)(=O)N(C)CC(=O)Nc2ccc3ccccc3c2)cc1,i
CNC[C@H]1Oc2ncc(C3=CCCCC3)cc2C(=O)N([C@@H](C)CO)C[C@H]1C,+
Cc1c(NC(=O)CN(c2cc(Cl)ccc2Cl)S(C)(=O)=O)c(=O)n(-c2ccccc2)n1C,i
N#Cc1ccccc1CSc1nnc(-c2ccccc2)n1-c1ccccc1,i
CCCN(C)C[C@H]1Oc2ncc(-c3ccccc3OC)cc2C(=O)N([C@@H](C)CO)C[C@H]1C,i
C[C@@H]1CN([C@H](C)CO)C(=O)c2cc(C#CCN(C)C)cnc2O[C@@H]1CN(C)C(=O)Cc1ccccc1,i
CC(=O)Nc1ccc(Br)cc1C(=O)OCc1cccc([N+](=O)[O-])c1,i
C[C@H](NC(=O)C[C@H]1C[C@H]2c3cc(NS(=O)(=O)c4ccc(F)cc4)ccc3O[C@H]2[C@H](CO)O1)c1ccccc1,i
O=C(NCc1cccnc1)C1CC(c2cccc(Br)c2)=NO1 (centres undefined),i
CCC(=O)OCC(=O)[C@@]1(OC(=O)CC)[C@@H](C)CC2C3CCC4=CC(=O)C=C[C@]4(C)C3(F)[C@@H](O)C[C@@]21C (some centres undefined),i
COc1ccc(Cl)cc1NC(=O)CSc1nc(N)cc(=O)[nH]1,i
CC(C)C#Cc1cnc2c(c1)C(=O)N([C@H](C)CO)C[C@H](C)[C@@H](CN(C)Cc1ccccc1)O2,i
C[C@H](CO)N1C[C@H](C)[C@@H](CN(C)C)Oc2cc(C#CC3CC3)ccc2S1(=O)=O,i
CN(C)C(=O)C[C@H]1CC[C@@H](NC(=O)C2CCC2)[C@@H](CO)O1,i
CC(C)CNc1nc(SCC(N)=O)nc(N2CCOCC2)n1,i
COC(=O)c1cc(OC)c(OC)cc1NC(=O)COc1ccc(Br)c(C)c1,i
COc1ccc(C(=O)NC(=S)NCc2cccnc2)cc1[N+](=O)[O-],i
O=C(CC1NC2CCCCC2NC1=O)Nc1ccc(Cl)cc1 (centres undefined),i
CN(Cc1nc(-c2ccccn2)no1)S(=O)(=O)c1ccc(Cl)cc1,i
C/C=C/c1ccc2c(c1)O[C@@H](CN(C)C(=O)Cc1ccncc1)[C@H](C)CN([C@H](C)CO)S2(=O)=O,i
O=c1c2c3c(sc2nc(SCc2nc4ccccc4[nH]2)n1-c1ccccc1)CCC3,i
N#Cc1c(NC(=O)CCN2C(=O)c3ccccc3C2=O)sc2c1CCCC2,i
COc1ccc(-c2noc(CSc3nnc(C)n3-c3ccccc3)n2)cc1,i
Cn1c(SCC(=O)n2c3c(c4ccccc42)CCCC3)nnc1-c1ccccc1,i
CCc1cc2c(SCC(=O)c3ccc(C)cc3)ncnc2s1,i
CCCC#Cc1cnc2c(c1)C(=O)N([C@H](C)CO)C[C@@H](C)[C@@H](CN(C)Cc1ccc(F)cc1)O2,i
C[C@H]1CN([C@@H](C)CO)C(=O)c2cc(N(C)C)ccc2O[C@H]1CN(C)CC1CCCCC1,i
C[C@@H]1CN([C@@H](C)CO)S(=O)(=O)c2ccc(C#Cc3ccccc3)cc2O[C@@H]1CN(C)CC1CC1,i
COc1ccc(-c2cnc3c(c2)C(=O)N([C@H](C)CO)C[C@H](C)[C@@H](CN(C)Cc2ccccc2)O3)cc1,i
COc1ccc([Si](C)(C)[C@H]2[C@H](CCn3cc(CCO)nn3)O[C@@]3(C(=O)N(C)c4c(Br)cc(C)cc43)[C@@H]2C)cc1,i
C=CC[C@@]12N=C(c3ccc(OCCCO)cc3)O[C@@H]1c1ccccc1CN(C(=O)c1ccccc1)C2=O,i
O=C(CSc1nnc(-c2ccc(Cl)cc2Cl)o1)Nc1ccc([N+](=O)[O-])cc1,i
O=C(N[C@@H]1C=C[C@H](CC(=O)N2CCCCC2)O[C@H]1CO)c1cccc(F)c1,i
